Screening results from PubChem.
AID504770 = growth inhibitors of E. coli YBA685 in a screen for V. cholerae RctB (chromosome II replication) inhibitors; E. coli YBA685 rctB-dependent plasmid, OD600 growth, 3 h; hits give low values; z-score (concentration not given with the values); 130,000 compounds, 0.27% hits;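 active means z-score under -2 on both plates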;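 further: wells of about 30 µL received 100 nL stock; score is relative to mean and SD of the test wells; the first replicate is given; strong numbers were not always called active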
Ba CapD inh = inhibitors of Bacillus anthracis CapD enzyme | purified CapD enzyme, fluorescence intensity read-out; hits give low values; some hits fall short of the stated cut | z-score (no concentration beside the values) | 140,000 compounds, 0.23% hits;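 active means z-score under -4 in either of two replicates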;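 further: stock transfer was 100 nL into about 40 µL; score is relative to mean and spread of the plate; one replicate is shown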
Numbers without * were called inactive; / = not tested or not shown. This is a subset; the hit share may differ from the screen's.

SMILES	AID504770	Ba CapD inh
C(=Nc1ccccc1)c1ccccc1	-0.4	0.1
O=C1OC(c2ccc(Br)o2)=N/C1=C/c1ccco1	0.65	/
CS(=O)(=O)c1ccc2c(c1)CCN2C(=O)CCC(=O)NCCc1ccccc1	/	-1.01
COC(CNC(=O)c1cc2c(s1)-c1ccccc1OC2)OC	0.2	0.36
CC1=C/C(=N\Nc2nncc3ccccc23)CC1	-0.45	/
Cc1cc(C)cc(NC(=O)CN2C=NS(=O)(=O)c3ccccc32)c1	-0.4	1.34
COC(=O)c1cn(NC(=O)/C(C)=C/c2ccccc2)c(=O)c2ccccc12	/	-0.135
CC/C(Cc1ccccc1)=N\NC(=O)c1cccnc1	-0.5	/
O=C(CSc1ccccc1)CSc1ccccc1	1	0.055
CCOC(=O)c1ccc(NS(=O)C23CC4CC(CC(C4)C2)C3)cc1 (centres undefined)	-0.1	/
Nc1cccc2c1C(=O)N(CCNc1ncc(C(F)(F)F)cc1Cl)C2=O	/	0.17
CCN1C[C@]2(COC)CC[C@H](O)C34C5C[C@@H]6C(OC)C[C@@](O)(C5[C@H]6OC(C)=O)[C@@H](CC32)[C@@H]14 (some centres undefined)	/	0.285
CSc1ccccc1NC(=O)CN(C)C1CCN(C)CC1	-1.25	/
FC(F)(F)c1c[nH]c(=S)c(C(F)(F)F)c1	-0.45	8.53
O=S(=O)(Nc1ccc(-c2ccno2)cc1)c1ccc(-n2cccn2)cc1	1.15	-0.33
Cc1onc(-c2ccccc2)c1NC(=O)Nc1c(-c2ccccc2)noc1C	/	-0.21
CSC(=NCCc1ccc(Cl)cc1)NS(=O)(=O)c1ccccc1	0.45	0.565
CCOC(=O)N1CCCN(CC(=O)NC(C)(C)C)CC1	1.55	/
CC(=O)Oc1ccc2oc3c(c2c1)C(=O)CCC3	/	-0.175
COC(=O)c1scc(C)c1NC(=O)c1cccc(C(F)(F)F)c1	-0.1	0.955
c1ccc(-c2nnc3n2-c2ccccc2SC3)cc1	-1	0.035
OCc1noc(-c2ccc(Cl)c(Cl)c2)n1	-0.15	0.385
CCSc1nc2ccc(NC(=O)CSCC(=O)Nc3ccccc3)cc2s1	/	0.965
O=C(CN1C(=O)CSC1=O)N1CCCCC1	0.45	/
CCOc1ccc(-c2cc(N)c(C(=O)OC)s2)cc1	0.5	8.17
Cc1[nH]ncc1CNC(=O)c1ccc(N2CCOc3ccccc32)s1	0.1	26.6
COc1cc(OC)nc(N2CCN(C(=O)Nc3ccccc3OC)CC2)n1	/	-0.485
O=C(Oc1cccc2cccnc12)c1cc(S(=O)(=O)N2CCOCC2)ccc1Cl	/	1.03
N#C/C(NCc1ccccc1)=C(\C#N)NCc1c(F)cccc1Cl	-0.15	-0.925
CC(=O)Nc1ccccc1N(CC(O)Cn1c2ccccc2c2ccccc21)S(=O)(=O)c1ccc(C)cc1 (centres undefined)	/	3.06
CCOc1ccc(N2C(=O)/C(=C\c3ccc(C(C)(C)C)cc3)S(=O)(=O)C2c2cccc([N+](=O)[O-])c2)cc1 (centres undefined)	/	-1.1
O=C(c1ccc(Sc2ccccn2)c([N+](=O)[O-])c1)N1CC=CCC1	/	-0.03
O=C(CCN1C(=O)NC2(CCCC2)C1=O)NCc1cccs1	-0.4	/
Clc1cc(Cl)cc(NC2=NC3(CCCCC3)Cc3ccccc32)c1	/	-0.2
O=C(CCCCn1c(=O)c2ccccc2n(CC(=O)N2CCN(c3ccccc3)CC2)c1=O)NCc1ccco1	0.45	-0.015
Cc1cc(C[n+]2nc(-c3ccccc3)sc2N)c2ncccc2c1	-0.05	14.7
CC(=O)c1cc(NC(=O)c2cccc(C(F)(F)F)c2)c(=O)oc1/C=C/N(C)C	/	-0.41
O=C(COc1ccccc1)Nc1cccc(-c2ccc3nncn3n2)c1	-0.45	/
CC1=NN(c2cccc(C(=O)O)c2)C(=O)/C1=C\c1ccc(-c2ccc3c(c2)C(=O)NC3=O)o1	/	-0.675
COc1ccc(N2C(=O)Nc3ccccc3C2(O)C(=O)NCCN2CCN(c3ccccc3)CC2)c(OC)c1 (centres undefined)	-1.1	0.61

Filtered by structure: the compounds so far containing a nitro group on carbon
SMILES	AID504770	Ba CapD inh
CCOc1ccc(N2C(=O)/C(=C\c3ccc(C(C)(C)C)cc3)S(=O)(=O)C2c2cccc([N+](=O)[O-])c2)cc1 (centres undefined)	/	-1.1
O=C(c1ccc(Sc2ccccn2)c([N+](=O)[O-])c1)N1CC=CCC1	/	-0.03

Ordered by SMILES length (high to low): 3 of the compounds above
SMILES	AID504770	Ba CapD inh
O=C(c1ccc(Sc2ccccn2)c([N+](=O)[O-])c1)N1CC=CCC1	/	-0.03
Clc1cc(Cl)cc(NC2=NC3(CCCCC3)Cc3ccccc32)c1	/	-0.2
O=C(CN1C(=O)CSC1=O)N1CCCCC1	0.45	/

(more compounds)
SMILES	AID504770	Ba CapD inh
Clc1cccc(-c2noc3ncnc(NCCC4=CCCCC4)c23)c1	0.55	0.74
O=C(Nc1nc2ccccc2c2nc3ccccc3n12)c1ccc(S(=O)(=O)N2CCCC2)cc1	/	0.325
O=C(OCc1nnc(-c2ccccc2)o1)c1ccccc1	-0.7	/
COc1cccc2c1N(C(C)=O)C1CC(C)CCC1C2(C)C (centres undefined)	0.55	1.23
CC(C)Cn1c(N)c(C(=S)NC(=O)c2ccco2)c(=O)n(C)c1=O	-0.75	/
O=C(CSc1nc2ccccc2[nH]1)Nc1ccc(Br)cc1F	-0.15	0.135
O=C(ON=C1CCCC1)c1ccc(Br)cc1	-0.65	0.28
COc1ccccc1-n1c(CCN2C(=O)c3ccccc3C2=O)nc2ccccc2c1=O	/	-0.415
O=S(=O)(c1ccccc1)N1CCSC1c1ccccc1 (centres undefined)	-0.05	/
CCN1C(=O)N/C(=C/c2ccc(-c3cc(C(=O)O)ccc3Cl)o2)C1=O	-0.45	16.3
O=C(CSc1ncn(-c2ccccc2)n1)NCCc1ccccc1	-0.2	0.455
CC(C#N)N1CCN(c2ccc(F)cc2)CC1 (centres undefined)	-1.3	/
CS(=O)(=O)N(CC(=O)O)Cc1ccc(Cl)c(Cl)c1	-0.85	-0.79
O=C1CCC(c2ccccc2)(c2ccc(C(=O)c3ccccc3)cc2)C(=O)N1 (centres undefined)	/	-0.345
Cc1ccc2c(c1)CCCN2C(=O)c1cnn(-c2ccc(F)cc2)c1C	-1.5	-0.05
O=C(/C=C/C(=O)c1ccc2ccccc2c1)c1ccccc1	3.2	-1.16
CC1=NN(c2ccccc2)C(=O)/C1=C\c1ccccc1CC(=O)O	-0.6	/
CC(C)(O)C(/C=C/c1ccccc1)=N/NC(N)=O	-0.5	-0.155
CCc1ccc(-c2nc(SCC(N)=O)n[nH]2)cc1	-0.25	/
O=S(=O)(c1cc(F)c(Br)cc1F)N1CCN(c2ncccc2C(F)(F)F)CC1	/	-0.16
CC(C)N(C(=O)Cn1cc(S(=O)(=O)CC(=O)N(C)c2ccccc2)c2ccccc21)C(C)C	-1.2	/
COc1ccc(N2Cc3cccc(C(=O)Nc4ccccc4)c3C2=O)cc1	-0.95	-0.08
COc1ccc(C(=O)CC2=NC(C)(C)CO2)cc1	0.3	/
Clc1ccc(Cl)c(-c2nn3c(Cn4nnc5ccccc54)nnc3s2)c1	1.35	/
NC(=O)CSc1nnc2ccc3ccccc3n12	2.5	5.48
Cc1ccc(-c2nnc(SC(C)C)n2-c2ccccc2)cc1	0.8	/
C=C(C)Cn1c(SCC(=O)O)nnc1-c1ccc(OC)cc1	0.95	0.265
O=C(c1ccc2c(c1)C(=O)N(Cc1ccco1)C2O)N1CCOCC1 (centres undefined)	0	0.57
COc1ccc(-c2nnc(Nc3nc4c(F)cccc4s3)o2)c(OC)c1	0.9	/
CC(=O)Nc1cc2nc3[nH]c(=S)[nH]c(=O)c3nc2cc1C	-0.1	-0.005
COc1ccccc1CNC(=O)c1ccc2c(=O)nc3c(-c4ccccc4)n[nH]n3c2c1	-1.05	0.64
CCC1=NN(C(=O)c2ccc(Br)cc2)C(O)(c2ccccc2)C1 (centres undefined)	/	0.215
COc1ccc(N=Cc2ccncc2)cc1	-0.45	-0.74
CC(C)(C)c1ccc(S(=O)(=O)N(CCCN2CCOCC2)Cc2cccs2)cc1	-0.6	-0.005
CNN1C(=O)c2cccc3cccc(c23)C1=O	1.25	-1.1
CCOC(=O)C1CCN(CN2C(=O)C3(SCC(=O)N3c3ccc(C)c(Br)c3)c3ccccc32)CC1 (centres undefined)	/	0.005
Cc1cccc(CCNS(=O)(=O)c2cnc[nH]2)c1	-2.6	1.8
CNC(=S)N/N=C/c1ccc(N(C)C)cc1	-0.05	28.5
COc1ccc(CN(C)C(=O)CN(c2ccc3c(c2)OCO3)S(C)(=O)=O)cc1	1.3	/
COc1ccccc1-c1cc(C(=O)NCc2ccc(F)cc2)no1	-0.45	12.6
C#CCOc1ccc2c3c(c(=O)oc2c1)CCCC3	/	31.3
Fc1ccc(CSc2ncnc3c2cnn3-c2ccccc2)cc1	-0.8	1.14
CCOC(=O)c1c(/N=C/c2cc(Br)c(Br)cc2O)sc2c1CCCC2	/	-1.05
Cc1occc1C(=O)N/N=C/c1ccc(C(C)(C)C)cc1	0.45	0
CCCCN(C)C(=O)Nc1cn(C)c(=O)c2ccccc12	0.3	61
O=C(OCc1cc(=O)n2ccsc2n1)c1ccc(NS(=O)(=O)c2ccc3c(c2)OCCO3)cc1	-1.4	/
COc1cccc(C(NC(=O)c2ccccc2)c2ccc3cccnc3c2O)c1 (centres undefined)	0	-0.895
Cc1sc2nc(SCc3ccccc3)n(C)c(=O)c2c1C	0.9	0.38
CC(C)(C)NC(=O)c1cc(S(=O)(=O)N2CCCCC2)ccc1Cl	-0.95	-1.18
COc1ccc(/C=C/C(=O)NCc2ccccn2)cc1OC	0.4	/
CCOC(Cn1c(CC)nc2ccccc21)OCC	0.35	0.685
Cc1n[nH]c(C)c1CCc1nc2c3ccccc3nc(=S)n2[nH]1	0.1	-1.23
COc1ccc(NC(=O)CC2Sc3ncnn3C2=O)cc1 (centres undefined)	-0.3	-0.82
O=C(O)c1ccc(N2CC3CC(C2)c2cccc(=O)n2C3)c(NC(=O)c2cc3ccccc3oc2=O)c1 (centres undefined)	/	-0.745
CC1CC(C)CN(S(=O)(=O)c2cccc(C(=O)Oc3ccc4c(c3)OCO4)c2)C1 (centres undefined)	-0.65	/
O=C(COc1ccc2c(-c3ccccc3)cc(=O)oc2c1)c1ccccc1	-0.2	5.8
Cc1ncc(CO)c(/C=N/N=C/c2c(O)ccc3ccccc23)c1O	0.15	0.83
FC(F)(F)Oc1ccccc1-c1nnc(-c2ccncc2)o1	0.25	-0.635
Cc1cc2c(cc1C)NC(C(F)(F)F)=CC(c1cccs1)=N2	2.05	-1.35
COC(=O)C1CC(OCc2ccccc2)CN1C(=O)OCc1cc(OC)c(OC)cc1Cl (centres undefined)	/	0.535

Next part
SMILES	AID504770	Ba CapD inh
CCN(CC)C(=O)C1CCCN(Cc2ccccc2)C1 (centres undefined)	-0.4	-0.525
COc1ccc(-c2cc(=O)c3cc(F)ccc3o2)cc1	0.5	23.9
Cc1ccc(CCNC(=O)c2cc3c(=O)oc4ccc(C)cc4c3s2)cc1	-0.4	0.675
CC(C)(C)c1ccc(C(=O)N2CCCCCC2)cc1	0.35	/
C=CCSc1nc(N)c(C(=O)OCC)cc1C#N	1.45	/
O=C(Cn1[nH]c(=O)c2ccccc2c1=O)NCc1ccncc1	-0.05	/
COc1cc(Cc2nnc(C(=O)NC(C)C)o2)cc(OC)c1OC	-0.45	0.28
CCOC(=O)C1CCN(CC(=O)Nc2cccc3cccnc23)CC1	-0.45	0.49
C=CCn1c(SCCC(=O)O)nnc1-c1cccnc1	1.1	/
CC(OC(=O)C1CCN(c2ccc(C(F)(F)F)cn2)CC1)C(=O)Nc1cccc(C#N)c1 (centres undefined)	0.2	/
CCc1c(N)c2ccccc2[nH]c1=O	-0.75	0.215
O=C(OCC(=O)N1CCCCC1)c1ccc(Br)o1	0.4	-0.44
COC(CNC(=O)c1ccc2nc(-c3ccccc3)c(-c3ccccc3)nc2c1)OC	2.2	0.105
CC1CN(C(=O)CCCC(=O)N2CC(C)OC(C)C2)CC(C)O1 (centres undefined)	-0.85	0.015
O=C(Oc1ccc(-c2nccc(-c3ccccn3)n2)cc1)c1ccc(F)cc1	/	0.18
OC1(c2cccc(F)c2)CCCCC1	1.5	1.07
COc1ccc(N/C=C(\C#N)c2nc(-c3cc4cc([N+](=O)[O-])ccc4oc3=O)cs2)c(OC)c1	/	0.045
CCCCn1cnc2cc(NCc3ccc(Br)cc3)ccc21	-0.15	-0.125
Cn1c(=O)c2sccc2n2c(CCC(=O)Nc3ccccc3)nnc12	0.35	0.425
COc1ccccc1C1CCN(S(=O)(=O)c2ccccc2Br)CC1	0	0.095
COC(=O)c1ccc(Sc2ccc(C)cc2)c(N)c1	0.15	107

Fetched by compound from the list above (two):
SMILES	AID504770	Ba CapD inh
CCOC(=O)C1CCN(CC(=O)Nc2cccc3cccnc23)CC1	-0.45	0.49
CCc1c(N)c2ccccc2[nH]c1=O	-0.75	0.215
